gsp antag: antagonizes gsp, the McCune-Albright syndrome mutation. gsp-mutant cells, cAMP HTRF, 30 min; control for the full effect not named in the record. Potency, µM (doses to about 76.9 µM), for the others: at the top dose activity change, negative = inhibition, hits mostly inhibitors. hit rate 0.4% among 340,000; active = falling curve of any shape with a large fitted effect; inconclusive = falling curve, mostly with a smaller effect; inactive = flat or rising curve; cell line not stated here;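 note: intracellular cAMP measured with PDE inhibitor Ro 20-1724 present during compound exposure; potency is the fitted concentration of half-maximal effect; % is set by controls: 0 for no effect and ±100 for the full control effect; nearly all actives have a fitted effect of over 65% in size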
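Cells in G418 medium, seeded 16-24 h, 37C; buffer exchange to DPBS + 1 mM CaCl2, 0.5 mM MgCl2, 0.05% BSA; cpds in DMSO + […] (300 uM stock), 30 min 37C; HTRF cAMP detection.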
CtBP-E1A inh: CtBP/E1A binding inhibition. hit rate 0.49% among 340,000. activity change, % (no concentration beside the values). AlphaScreen GST-E1A/His-CtBP binding, 1536-well; hits give low values; control for the full effect not named in the record. AID 651724; in the data active means activity change below about -65%; inconclusive means about -30% to -65%; inactive means above about -30%; note: % is set by controls: 0 for no effect and ±100 for the full control effect; compound concentration not given in the record
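In 5 uL wells, 23 nL compound meets equimolar GST-E1A and His-CtBP (5X stock 125 nM each) for 2 h, 37 °C. Beads (5X, 50 ug/mL) then 1 h, 37 °C, dark.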
Menin MLL FP FL: inhibitors of human menin-MLL interaction, wild-type MLL peptide; Fluorescence polarization, fluorescein-MLL peptide displacement from menin; FP activity change, % at 61.4 µM; 290,000 tested, under 10 active; AID 1766; inconclusive = falling polarisation curve, or a change in total fluorescence; inactive = total fluorescence flat and polarisation flat or rising; no compound was filed as active; the % refers to the polarisation; negative = inhibition;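 note: % of control where 0% means no effect; inhibitors lower the polarisation; unlabelled MLL peptide was the positive control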
ClpP mod: qHTS Assay for Activators of ClpP. purified B. subtilis ClpP, FRET peptide cleavage, 20 min. hit rate 1.9% among 340,000. Potency, µM (top dose mostly 57.5 µM), inactives show at the top dose activity change, negative = active; active = well fitted falling curve with a large enough effect; inconclusive = small, poorly fitted or top-dose-only effect; inactive = no such curve, though single readings can be large or run the other way; note: potency is the fitted concentration of half-maximal effect; the source files actives as falling curves though it sought activators and does not explain the sign; nearly all actives have a fitted effect of over 65% in size; many hits overshoot -100%
Target sequence (P80244 whole entry, looked up): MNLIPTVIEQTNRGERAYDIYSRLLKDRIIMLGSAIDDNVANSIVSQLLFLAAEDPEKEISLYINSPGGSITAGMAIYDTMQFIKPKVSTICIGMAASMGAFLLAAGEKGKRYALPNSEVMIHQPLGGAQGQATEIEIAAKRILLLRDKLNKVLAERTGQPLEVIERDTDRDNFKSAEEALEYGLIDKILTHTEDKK
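Purified B. subtilis ClpP, 10 microg/mL final in Tris/HCl pH8 with KCl, BSA, glycerol and Tween-20, cleaved an Abz/nitrotyrosine-quenched decapeptide. Fluorescence (ex 320, em 430) was read at 0 and 20 min at room temperature. Delta was normalized to 5.8 microM ADEP and DMSO/no-enzyme controls.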
Sfp PPTase inh: Sfp phosphopantetheinyl transferase inhibition; Q9F4F7; Biochemical Sfp PPTase activity, qHTS; Potency, µM, for the others: max response, negative = inhibition, most hits filed as inhibitors; hit rate 3.5% among 310,000; active = well fitted inhibition curve with a large enough effect; inconclusive = small, poorly fitted or top-dose-only effect, or another doubt; inactive = no such curve, though single readings can be large or run the other way;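 note: the enzyme is Sfp with the accession as filed and its product quenches rhodamine fluorescence; potency is the fitted concentration of half-maximal effect; 0% = enzyme reaction without inhibitor and -100% = no enzyme wells; top concentration of the series not given in the record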
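Buffer: 50 mM Hepes-Na pH 7.6, 10 mM MgCl2, 0.01% Nonidet P-40, 0.01% BSA. Enzyme 15 nM, pre-exposed to compound 15 min; substrates then added and fluorescence change tracked over 30 min.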
TRPV1 potentiator: human TRPV1 potentiation | Q8NER1 | TRPV1-expressing cells, Fluo-8 calcium influx, capsaicin EC20 potentiation; host cell line not named in the record; control for the full effect not named in the record | potentiation, % at 8.33 µM | hit rate 0.02% among 320,000 | AID 540277; active means potentiation above 80%; inconclusive means 30% to 80%; inactive means below 30%; note: 0% is about no effect
Target sequence (Q8NER1 whole entry, looked up): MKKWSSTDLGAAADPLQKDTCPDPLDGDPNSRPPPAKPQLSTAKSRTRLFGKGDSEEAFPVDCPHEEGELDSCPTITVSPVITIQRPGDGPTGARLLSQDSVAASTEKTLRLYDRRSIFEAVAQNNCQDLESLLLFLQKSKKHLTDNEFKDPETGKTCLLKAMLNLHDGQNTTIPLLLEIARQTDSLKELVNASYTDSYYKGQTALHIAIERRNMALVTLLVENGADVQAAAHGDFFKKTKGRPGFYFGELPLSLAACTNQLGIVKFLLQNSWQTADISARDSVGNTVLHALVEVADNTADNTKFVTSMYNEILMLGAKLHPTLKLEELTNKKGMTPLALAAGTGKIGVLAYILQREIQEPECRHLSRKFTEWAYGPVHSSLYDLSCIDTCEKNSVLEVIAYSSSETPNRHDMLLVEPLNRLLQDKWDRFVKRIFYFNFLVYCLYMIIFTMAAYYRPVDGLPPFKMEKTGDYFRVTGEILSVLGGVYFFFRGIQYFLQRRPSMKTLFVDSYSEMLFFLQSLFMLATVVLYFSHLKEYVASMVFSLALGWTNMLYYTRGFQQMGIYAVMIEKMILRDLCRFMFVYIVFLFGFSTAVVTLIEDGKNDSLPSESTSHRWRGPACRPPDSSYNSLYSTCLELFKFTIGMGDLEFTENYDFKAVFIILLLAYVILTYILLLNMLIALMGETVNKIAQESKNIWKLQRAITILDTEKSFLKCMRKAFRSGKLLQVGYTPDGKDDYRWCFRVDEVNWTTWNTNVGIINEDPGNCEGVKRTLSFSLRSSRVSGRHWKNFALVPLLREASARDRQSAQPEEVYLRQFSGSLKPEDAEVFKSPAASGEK
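Fluo-8 calcium influx in TRPV1-expressing cells, kinetic read (ex 480/em 520 nm). Compound added and read 3 min for agonist activity, followed by capsaicin at EC20 final and 2 min further read for enhancement.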
gsp ag: gsp mutant agonism. gsp mutant cells, cAMP HTRF, 30 min; control for the full effect not named in the record. hit rate 0.13% among 340,000. Potency, µM (series often up to 76.9 µM), without a hit: top-dose activation (cAMP increase), hits mostly activators; active = well fitted activation curve with a large enough effect; inconclusive = small, poorly fitted or top-dose-only effect, or another doubt; inactive = no such curve, though single readings can be large or run the other way; cell line not stated here;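 note: phosphodiesterase inhibitor Ro 20-1724 added with compounds to block cAMP breakdown; potency is the fitted concentration of half-maximal effect; nearly all actives have a fitted effect of over 60% in size; about a fifth of the inactives were tested at one dose only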
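Cells stably selected in G418 were plated at 2000/well, grown 16-24 hr, then given compounds in DMSO with the PDE inhibitor […] (300 uM solution added) for 30 min at 37C; cAMP was read by HTRF.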
The depositor's hits bear a star; u = inconclusive; x = no result given; [ ] = dose if it differs, or a comment. Random draw from the library, and some 5.3% of all compounds hit somewhere here.

SMILES	gsp antag	CtBP-E1A inh	Menin MLL FP FL	ClpP mod	Sfp PPTase inh	TRPV1 potentiator	gsp ag
Cc1ccc(S(=O)(=O)/C(C#N)=C/c2c(N3CCC(C(N)=O)CC3)nc3ccccn3c2=O)cc1	2.8%	-22.9	2.5	-2.9%	5.4%	14.0	20.5%
CCCCn1c(NS(=O)(=O)c2ccccc2)c(S(=O)(=O)c2ccc(C)cc2)c2nc3ccccc3nc21	15.9%	26.6	0.6	15.8µM*	-2.7%	10.2	25.7%[15.4 µM]
O=C(NNC1=NCCC1)C1CC1	x	-2.0	0.0	x	-6.3%	9.0	-4.3%[15.4 µM]
Cc1cc(-c2[nH]nc3c2C(c2ccsc2)C(C#N)=C(N)O3)c(C)s1 (stereo not given)	-0.4%	-7.4	4.0	1.3%	-4.2%	3.2	-0.1%
COc1ccc(N(CC(=O)NCCC(C)C)C(=O)c2snc(C(=O)NC3CCCCC3)c2N)c(OC)c1	-6.9%	-0.8	-6.1	x	13.8%	-14.7	-38.9%
CC(O)C(=O)N/N=C/c1cccc(Cl)c1Cl (stereo not given)	11.5%	1.7	0.6	-1.9%	14.6%	-4.9	-16.3%
O=C(Nc1ccccc1-c1nc2ccccc2[nH]1)c1sc2ccccc2c1Cl	x	x	7.9	x	3.0%	-5.7	x
COc1ccc(C(=O)Oc2cccnc2)cc1OC	15.8%	6.7	2.3	-0.3%	-10.9%	x	-34.4%[inhibitor]
S=C(Nc1cc(Cl)ccc1Cl)Nn1cnnc1	-12.2%	-1.0	0.2	x	17.8µM*	-3.8	-2.1%[15.4 µM]
CCCCCC(=O)Nc1c(-c2cccs2)c(=O)c2ccccc2n1C	-4.6%	-3.4	-23.4	-10.5%	-1.0%	18.1	11.5%
CCOC(=O)c1ccc(N2C(=O)c3n[nH]c(-c4ccco4)c3C2c2cccc([N+](=O)[O-])c2)cc1 (stereo not given)	-15.9%	14.9	5.2	-4.1%	-11.1%	1.8	u
Cc1cc2nccc(-c3ccc(Cl)cc3Cl)n2n1	4.9%	x	0.2	1.6%	4.6%	u	25.9%
CCOc1ccccc1OCc1nn2c(COc3ccccc3)nnc2s1	-5.9%	5.7	1.3	1.4%	17.8µM*	6.7	u
Cc1nc2ccc(Cl)cn2c1[N+](=O)[O-]	x	0.2	x	-2.1%	x	x	u
COc1ccc(-c2nc(CS(=O)CC(=O)NC3CCCCC3)c(C)o2)cc1OC (stereo not given)	5.6%	-12.5	x	3.4%	-2.8%	13.9	-11.6%
Cc1noc(NS(=O)(=O)c2ccc(NC(=O)C(F)(F)C(F)(F)C(F)(F)F)cc2)c1C	-5.6%	7.8	x	x	x	x	9.4%
O=C(CNS(=O)(=O)c1ccc(F)cc1)Nc1ccc(C(F)(F)F)cc1	-11.3%	1.1	-0.7	-1.0%	18.8%	-12.7	-49.4%[inhibitor]
O=C(NNc1ccc([N+](=O)[O-])cc1)c1ccco1	-4.1%	4.1	11.5	-0.3%	u	-0.1	2.6%
Cc1nc2c(C#N)c[nH]n2c(=O)c1CCO	8.9%	3.3	7.8	-24.2%	-5.2%	-5.4	1.4%
Cc1noc(C)c1COc1cccc(C(=O)OCCOc2ccc(F)cc2)c1	-8.2%	37.8	-0.6	-7.2%	u	-0.5	3.8%
CC(C)c1ccc(OCC(=O)N(Cc2ccccc2)c2ccccn2)cc1	-11.7%	x	0.1	-1.7%	4.3%	-19.3	-22.3%
CCn1c(C)nc2c(=O)oc3ccccc3c21	11.6%	-20.6	1.7	-1.2%	7.7%	4.8	-5.0%
O=C(O)c1cccc(Nc2nc(-c3ccccc3)nc3ccccc23)c1	-5.7%	-16.9	-1.7	0.0%	9.9%	u	34.9%[15.4 µM]
CCN(CC)CCNC(=O)Cn1nc(-c2ccccc2)c2ccccc2c1=O	0.3%	3.1	1.4	0.7%	28.1%	11.1	-7.8%
COc1cc2c(C(=O)NCCCN3CC(C)CC(C)C3)cn(CC(C)C)c(=O)c2cc1OC (stereo not given)	-4.1%	-1.2	0.2	-7.6%	24.7%	-3.3	5.5%
Other results:
SMILES	gsp antag	CtBP-E1A inh	Menin MLL FP FL	ClpP mod	Sfp PPTase inh	TRPV1 potentiator	gsp ag
O=C(Nc1ccc(Cl)cn1)c1ccc(Br)c(S(=O)(=O)N2CCCCC2)c1	6.3%	4.4	3.3	x	7.9%	-9.0	0.7%
Fc1cccc(Cl)c1CNCc1cccnc1	15.2%	7.1	-8.8	x	12.1%	2.2	-3.8%
CCc1nnc(NC(=O)c2cnccn2)s1	-18.4%	-23.0	u	-1.5%	u	-2.6	-45.6%[inhibitor]
COc1cc(S(=O)(=O)NC2CCCCC2)ccc1Cl	3.0%	-2.3	-3.3	u	15.3%	-1.0	-8.4%
Cc1cccc(OCC(=O)N2CCc3ccccc3C2)c1C	x	2.4	x	0.7%	x	x	0.6%
O=C(NC1CC1)C1CC(=O)N(c2cccc(Cl)c2Cl)C1 (stereo not given)	6.0%	9.1	x	-0.4%	-8.1%	-15.3	19.9%
CC(=O)N1CCCc2cc(S(=O)(=O)NC(C(=O)NCc3ccc(C)cc3)C(C)C)ccc21 (stereo not given)	-5.6%	9.9	0.5	0.7%	20.0%	-0.5	-1.2%
COC(=O)c1c(NC(=O)C2(C)Cc3ccccc3C(=O)O2)sc2c1CCCC2 (stereo not given)	-22.6%	-1.6	2.2	u	u	8.7	9.5%
CC1(C)CC(=O)C(C=NCCN2CCN(CC(=O)Nc3ccccc3)CC2)=C(O)C1	-6.6%	-5.4	6.9	-2.3%	5.0%	4.6	5.8%
CCOC(=O)c1cc2c(=O)n3ccccc3nc2n(C(C)C)c1=NC(=O)c1ccco1	20.0%	-6.6	-0.3	x	4.0%	-1.1	5.6%[15.4 µM]
Nc1ccc2c(c1)C(=O)c1cc(Cl)c(Cl)cc1-2	-9.8%	-13.2	x	x	x	x	-29.3%
CC(C)NS(=O)(=O)c1ccc(CCC(=O)N2CCCCC2)cc1	0.1%	5.0	-0.1	x	21.2%	2.8	-22.0%
[O-][n+]1onc2c1CCc1c-2nn(-c2ccccc2Cl)[n+]1[O-]	0.3%	1.2	-3.7	0.8%	-1.7%	-3.9	5.7%
CCOc1nc(S(=O)(=O)c2ccc(C)cc2)c(Cl)s1	-7.2%	18.2	3.7	-1.6%	2.8%	0.7	0.0%
CCOC(=O)Nc1sc2c(c1C#N)CCC(C)C2 (stereo not given)	-2.4%	1.9	0.2	0.7%	u	-2.1	0.0%
COc1ccc(S(=O)(=O)/N=C2\C=C(Nc3ccc(O)cc3)C(=O)c3ccccc32)cc1	-7.2%	-87.5*	-9.4	x	-9.8%	-0.3	-3.3%[15.4 µM]
C/C(=N\Nc1nccnc1Cl)c1ccc(Br)cc1	-2.8%	x	1.6	-1.2%	8.2%	2.5	-36.4%[inhibitor]
CC(=O)Nc1ccc(C(=O)NNC(=O)CCc2ccccc2)cc1	11.6%	3.3	-0.7	1.5%	16.1%	0.3	3.6%
O=C(NCc1ccccc1Cl)C1CCC(=O)N(C2CC2)C1 (stereo not given)	8.4%	-0.7	x	-0.4%	12.9%	3.6	0.8%[15.4 µM]
Cc1ccc(N(CCC#N)C(=O)COC(=O)C2=COCCO2)cc1	6.7%	2.1	x	-25.7%	x	18.4	-22.6%
COc1cc(OC)cc(-c2c(-c3cccs3)c3cc(-c4ccc(OC)c(OC)c4)ccc3n2C)c1	12.2%	-12.1	x	4.1%	x	-7.5	-14.5%
CCN1C=CC2=C(C#N)C(N)C(C#N)(C#N)C(c3ccccc3C(F)(F)F)C2C1 (stereo not given)	0.2%	-6.2	0.1	-9.6%	3.9%	0.7	-1.8%
Clc1cccc(Cl)c1C[n+]1cccc2ccccc21	-6.7%	3.9	x	-0.2%	x	x	4.6%[15.4 µM]
CCN1C(=O)[C@H]2[C@@H](c3ccc(C)cc3)N3C(=O)N(c4cccc(Br)c4)C(=O)[C@@]3(CC(C)C)[C@H]2C1=O	-11.8%	-18.7	x	-3.2%	x	-5.5	x
Cc1cccc(NC(=O)CCN2CCOCC2)c1	9.5%	-4.4	-2.2	1.3%	5.6%	8.1	4.4%
CCN=c1sc(C(=O)Nc2ccccc2)c(C)n1CC	9.6%	5.6	0.2	x	-0.7%	6.7	-25.0%[15.4 µM]

Gathered by group, the compounds so far containing an aryl methoxy group.
SMILES	gsp antag	CtBP-E1A inh	Menin MLL FP FL	ClpP mod	Sfp PPTase inh	TRPV1 potentiator	gsp ag
COc1ccc(N(CC(=O)NCCC(C)C)C(=O)c2snc(C(=O)NC3CCCCC3)c2N)c(OC)c1	-6.9%	-0.8	-6.1	x	13.8%	-14.7	-38.9%
COc1ccc(C(=O)Oc2cccnc2)cc1OC	15.8%	6.7	2.3	-0.3%	-10.9%	x	-34.4%[inhibitor]
COc1ccc(-c2nc(CS(=O)CC(=O)NC3CCCCC3)c(C)o2)cc1OC (stereo not given)	5.6%	-12.5	x	3.4%	-2.8%	13.9	-11.6%
COc1cc2c(C(=O)NCCCN3CC(C)CC(C)C3)cn(CC(C)C)c(=O)c2cc1OC (stereo not given)	-4.1%	-1.2	0.2	-7.6%	24.7%	-3.3	5.5%
COc1cc(S(=O)(=O)NC2CCCCC2)ccc1Cl	3.0%	-2.3	-3.3	u	15.3%	-1.0	-8.4%
COc1ccc(S(=O)(=O)/N=C2\C=C(Nc3ccc(O)cc3)C(=O)c3ccccc32)cc1	-7.2%	-87.5*	-9.4	x	-9.8%	-0.3	-3.3%[15.4 µM]
COc1cc(OC)cc(-c2c(-c3cccs3)c3cc(-c4ccc(OC)c(OC)c4)ccc3n2C)c1	12.2%	-12.1	x	4.1%	x	-7.5	-14.5%
